Bioassay records as filed in PubChem.
Methyltransferases = Primary Screen for Target Class Profiling of Small Molecule Inhibitors of Methyltransferases; purified enzyme, MTase-Glo SAH luminescence; active compounds read low; calls only at 40 µM; 25,000 tested, 3.9% active; AID 1745853, 2022; active = -50% or lower on at least one of six enzymes; inconclusive = the cases between; inactive = as a rule above -30% on all six;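 further: enzymes were COMT GAMT GNMT HNMT NNMT and PNMT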
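Each enzyme was reacted with SAM and its substrate, with compounds tested once at 40 uM; SAH formed was read by MTase-Glo luminescence.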
Calls only; i = inactive; ? = inconclusive; + = active, no number. On the % scale 0 is the no-effect control and ±100 the full control effect. An excerpt (hit frequency here may not be typical).

SMILES	Methyltransferases
CC1CC(O)/C=C/C(O)C(O)CC(=O)Cc2c(Cl)c(O)cc(O)c2C(=O)O1 (stereo not given)	i
CCCn1c(=O)c2ccc(C(=O)NC(C)C)cc2n2c(=O)n(CC(=O)Nc3ccc(C)c(F)c3)nc12	i
O=C(C1CCCC1)N1CCCC(c2noc(COc3ccccc3)n2)C1 (stereo not given)	i
COC(=O)c1ncn2c1C(=O)N(Cc1ccc(C)cc1)C(C)(C(=O)NCc1ccccc1)C2 (stereo not given)	i
CCOc1ccc(N2C(=O)c3c(C(=O)OC)ncn3CC2(C)C(=O)NCc2ccccc2)cc1 (stereo not given)	i
C/C=C(/C)C(=O)OC1CC(C)(C)CC2C3=CCC4C5(C)CCC(OC6OC(C)C(OC7OC(C(=O)O)C(O)C(OC8OC(CO)C(O)C(O)C8OC8OC(CO)C(O)C(O)C8O)C7O)C(O)C6O)C(C)(C)C5CCC4(C)C3(C)C(OC(=O)/C=C/C=C/C=C/CCC)C(OC(C)=O)C12CO (stereo not given)	i
COc1ccc2cc3n(c2c1)CC(C)(C(=O)NC1CCCC1)N(CCc1ccc(Cl)cc1)C3=O (stereo not given)	i
O=C(CCn1ccc2cc(S(=O)(=O)N3CCCC3)ccc21)NCc1cccs1	i
Cc1cnc(C2CCOCC2)n1CCN	i
COc1cc2ncnc(Sc3nnc(C)s3)c2cc1OC	?
CN1CCC(N(Cc2cccs2)c2ccccc2)CC1	i
CN1CCN(C(=O)[C@@H]2C[C@H](C(=O)O)CN(Cc3cccc(F)c3)C2)CC1	i
O=C(NCc1ccc(F)cc1)c1ccc(N2CC3CC(C2)[C@H]2CCCC(=O)N2C3)nc1 (stereo not given in full)	i
O=C(NC1CCCCC1)C1CN(C(=O)c2ccc(Br)o2)CC12CCOCC2 (stereo not given)	i
COc1ccc2cc3n(c2c1)CC(C)(C(=O)NC1CCCCCCC1)N(CCN1CCOCC1)C3=O (stereo not given)	i
CC1CCCC(NC(=O)C2(C)Cn3c(cc4sccc43)C(=O)N2Cc2cccs2)C1C (stereo not given)	i
CCN(CC)Cc1cnc2c(C(=O)NC3(C(N)=O)CCCC3)cnn2c1	i
COc1ccc(CNC(=O)c2cc3n(n2)CC(C)(C(=O)NC2CCCCCC2)N(C)C3=O)cc1 (stereo not given)	i
O=C(NC1CCN(c2cc(-c3cccs3)[nH]n2)C1)c1cccnc1 (stereo not given)	i
Cc1ccccc1C(OCCN(C)C)c1ccccc1 (stereo not given)	i
CCCS(=O)(=O)N1CC(Oc2ccccc2-c2noc(C)n2)C1	i
COc1ccc(CCN2CCC(CN(C)C(=O)C3CCCCO3)CC2)cc1 (stereo not given)	i
CCOCCCNC(=O)c1cc2n(n1)CC(C)(C(=O)NC1CCCCCC1)N(C)C2=O (stereo not given)	i
C=C(C)[C@@H]1CC[C@]2(C)CC[C@]3(C)[C@H](CC[C@@H]4[C@@]5(C)CC[C@@H](O)C(C)(C)[C@@H]5CC[C@]43C)[C@@H]12	i
CC1CCCCCCCc2cc(O)cc(O)c2C(=O)O1 (stereo not given)	+

Molecules listed so far with fluorine, in the order listed:
SMILES	Methyltransferases
CCCn1c(=O)c2ccc(C(=O)NC(C)C)cc2n2c(=O)n(CC(=O)Nc3ccc(C)c(F)c3)nc12	i
CN1CCN(C(=O)[C@@H]2C[C@H](C(=O)O)CN(Cc3cccc(F)c3)C2)CC1	i
O=C(NCc1ccc(F)cc1)c1ccc(N2CC3CC(C2)[C@H]2CCCC(=O)N2C3)nc1 (stereo not given in full)	i

Further compounds follow.
SMILES	Methyltransferases
COc1cc(OC)cc(C(=O)N[C@@H]2COCC[C@@H]2Oc2cccc(F)c2)c1	i
CCCCCCCCCCC(O)C1C=CC2C(=O)N(c3ccccc3)C(=O)C2N1Nc1ccc([N+](=O)[O-])cc1 (stereo not given)	?
O=C(COc1ccccc1)N1C[C@@H]2C[C@H](C1)c1c(NS(=O)(=O)c3ccccc3)ccc(=O)n1C2	i
C#CCN(C)CCCOc1ccc(Cl)cc1Cl	i
COC(=O)C1=COC(O[C@@H]2O[C@H](CO)[C@@H](O)[C@H](O)[C@H]2O)[C@@H]2[C@@](C)(O)[C@@H](OC(=O)/C=C/c3ccccc3)C[C@]12O (stereo not given in full)	i
COc1ccc(S(=O)(=O)N2CCCC(CN3CCC(C)CC3)CC2)cc1 (stereo not given)	i
CC(C)c1ccc(-c2cc3n(n2)CC(C)(C(=O)NC2CCCCC2)N(C2CCCC2)C3=O)cc1 (stereo not given)	i
CCOC(=O)c1cc2n(n1)CC(C)(C(=O)NCCC(C)C)N(c1ccc(F)cc1)C2=O (stereo not given)	i
CC1(C(=O)NC2CCCCC2)Cn2c(cc3sccc32)C(=O)N1C1CCCCC1 (stereo not given)	i
CCOCCCNC(=O)N1Cc2c(sc3c2CCCC3)-n2cccc2C1c1cccc(OC)c1 (stereo not given)	i
O=C(C1CCCN1[S+](=O)([O-])c1cccc(C(F)(F)F)c1)N1CCC(N2Cc3cccn3C2=O)CC1 (stereo not given)	i
COc1cccc(N2C(=O)c3cc4sccc4n3CC2(C)C(=O)NC2CCCCC2)c1 (stereo not given)	i
Cc1cnc(-c2ccccc2C(C)C)nc1NCc1ccc(-n2ccnn2)cc1	i
C=CCCC(CN1CCCOCC1)Oc1nccc(N(C)CC)n1 (stereo not given)	i
Cc1cc(F)c(Nc2ncnc3cc(OCc4ccccc4)ccc23)cc1O	?
CC1(C(=O)NCc2ccccc2)Cn2c(ccc2-c2ccco2)C(=O)N1CCC1=CCCCC1 (stereo not given)	i
CC(C)NS(=O)(=O)c1ccc2c(c1)nc(-c1cc(C(C)(C)C)[nH]n1)n2C(C)C	i
Cn1c(=O)oc2cc(S(=O)(=O)N3CCCC(C(=O)N4CCC(Cc5nncn5-c5ccccc5)CC4)C3)ccc21 (stereo not given)	i
O=c1c2ccccc2n2c(=O)n(Cc3ccc(Cl)cc3)nc2n1Cc1ccccc1	i
CC(C)C1=CC2=CCC3[C@](C)(CCC[C@@]3(C)C(=O)O)C2CC1=O (stereo not given in full)	i
O=C(O)C1=CO[C@@H](O[C@@H]2O[C@H](CO)[C@@H](O)[C@H](O)[C@H]2O)[C@@H]2C(CO)=CC[C@H]12	i
CSc1ccc(CCN2C(=O)CSc3c(c4ccccc4n3C)C2C(=O)NCCC(C)C)cc1 (stereo not given)	i
CCCC1c2cccn2CCN1C(=O)NCC1CCC(C(=O)OCC)CC1 (stereo not given)	i
Nc1nc(COC(=O)c2ccc([N+](=O)[O-])cc2)nc(Nc2ccccc2)n1	i
Cc1ccccc1N1C(=O)c2cc3sccc3n2CC1(C)C(=O)NC1CCC(C)CC1 (stereo not given)	i

The list goes on:
SMILES	Methyltransferases
CC(C)(C)c1ccc(S(=O)(=O)Nc2ccc(-n3ccnc3)cc2)cc1	?
CN(C)S(=O)(=O)N1CCc2c(nc3cc(-c4ccccc4)[nH]n3c2=O)C1	i
Cc1ccc(C)c(N2C(=O)c3cc4ccccc4n3CC2(C)C(=O)NC2CCCC2)c1 (stereo not given)	i
N[C@@]1(C(=O)O)CC[C@H]2[C@H](C(=O)O)[C@H]21	i
COCCCNC(=O)C1(C)Cn2nc(-c3ccccc3)cc2C(=O)N1c1ccc(C)c(C)c1 (stereo not given)	i
CC1(C(=O)NC2CCCC2)Cn2c(ccc2-c2ccco2)C(=O)N1CCc1ccccc1 (stereo not given)	i
CC(=O)Nc1ccc(S(=O)(=O)Nc2ccc3c(c2)n(C)c(=O)n3C)c(C)c1	i
Cc1cccc(O[C@H]2COCCN(c3nc4ccccc4o3)C2)n1	?
Cc1ncc(NC(=O)c2ccc(CN3CCN(C)CC3)c(C(F)(F)F)c2)cc1Nc1nccc(-c2cccnc2)n1	i
COc1ccc(CNC(=O)C(C)n2ccc3cc(S(=O)(=O)N4CCCCC4)ccc32)c(OC)c1 (stereo not given)	i
O=C(Cn1nc2n(CCc3ccccc3)c(=O)c3ccccc3n2c1=O)NCc1ccccc1	i
COc1cccc(-c2ccc(NC(=O)C3CCCN3C(=O)CNC(C)=O)cc2)c1 (stereo not given)	i
Cc1ccc(CN2CCC3(CC2)CN(c2ncccn2)CC3CO)cc1C (stereo not given)	i
Cc1cccc(OCC(=O)N2CCC[C@H]2c2nc(-c3ccc(F)cc3)n[nH]2)c1	i
CC(C)(OC1OC(CO)C(O)C(O)C1O)C1CCC(O)(CO)C2CC(O)C(C)(O)C2C1 (stereo not given)	i
CC(C)Cn1c(=O)c2ccc(C(=O)NC(C)C)cc2n2c(=O)n(Cc3c(F)cccc3Cl)nc12	i
CCOc1cccc(C2c3cccn3-c3sc4c(c3CN2C(=O)NCCCOC)CCCC4)c1 (stereo not given)	i
C/C1=C\CC[C@H](C)CCO[C@@H]2O[C@H](CO[C@@H]3OC[C@](O)(COC1=O)[C@H]3O)[C@@H](O)[C@H](O)[C@H]2O	i
CC(=O)Nc1cccc(-c2ncc3c(n2)OCCN(CC2CC2)C3=O)c1	i
C=C1C(=O)OC2CC(C)=C(C(C)CCCOC(C)=O)C(OC(=O)CC(C)CC)C12 (stereo not given)	i
CCOC(=O)C1CCN(C(=O)c2ccc3oc(-c4cccnc4)nc3c2)CC1	i
Cc1cc(CN2CCC3(CC2)CCN(Cc2cscn2)CC3CO)on1 (stereo not given)	i
COc1ccc(OC)c2c1cc1n2CC(C)(C(=O)NC2CCCC2)N(Cc2ccco2)C1=O (stereo not given)	i
CN(C)c1ccc(CCc2nc(C3CCOC3)no2)cc1 (stereo not given)	i
CCC1c2ccc(C)n2CCN1C(=O)Nc1cccc2c1CCCC2 (stereo not given)	i

Seven entries picked at random from those above:
SMILES	Methyltransferases
Cc1ncc(NC(=O)c2ccc(CN3CCN(C)CC3)c(C(F)(F)F)c2)cc1Nc1nccc(-c2cccnc2)n1	i
O=C(Cn1nc2n(CCc3ccccc3)c(=O)c3ccccc3n2c1=O)NCc1ccccc1	i
CN(C)S(=O)(=O)N1CCc2c(nc3cc(-c4ccccc4)[nH]n3c2=O)C1	i
CC(=O)Nc1ccc(S(=O)(=O)Nc2ccc3c(c2)n(C)c(=O)n3C)c(C)c1	i
CC(C)(OC1OC(CO)C(O)C(O)C1O)C1CCC(O)(CO)C2CC(O)C(C)(O)C2C1 (stereo not given)	i
CCOC(=O)C1CCN(C(=O)c2ccc3oc(-c4cccnc4)nc3c2)CC1	i
Cc1ccc(CN2CCC3(CC2)CN(c2ncccn2)CC3CO)cc1C (stereo not given)	i

(more compounds)
SMILES	Methyltransferases
CCOCCCN1C(=O)c2cc(-c3ccc(OC)c(OC)c3)nn2CC1(C)C(=O)NC1CCCCC1 (stereo not given)	i
CC1CCCC(NC(=O)C2(C)Cn3c(cc4occc43)C(=O)N2Cc2ccc3c(c2)OCO3)C1C (stereo not given)	i
O=c1c2ccccc2n2c(-c3cccc(Cl)c3)nnc2n1Cc1ccc(F)cc1	i
Cc1ccccc1CNC(=O)c1ncn2c1C(=O)N(C1CC1)C(C)(C(=O)NCc1ccc(F)cc1)C2 (stereo not given)	i
O=C(NC[C@H]1O[C@@H](CC(=O)N2CCc3ccccc32)[C@H](O)[C@@H]1O)C1CC1	i
CNC(=O)N1CCC(C2CCN(Cc3ccc(Br)o3)C2)CC1 (stereo not given)	?
CCC[C@@H]1C[C@@H](C(=O)N[C@H](C(C)Cl)[C@H]2O[C@H](SC)[C@H](O)[C@@H](O)[C@H]2O)N(C)C1 (stereo not given in full)	?
CC(C)OCCCn1c(=O)c2cc(Cl)ccc2n2c(SCc3ccccc3Cl)nnc12	i
O=c1n(CC2CC2)c2cccnc2n1[C@H]1CCCN(S(=O)(=O)c2cccnc2)C1	i
CC1(C)CC[C@]2(C(=O)O[C@@H]3O[C@H](CO)[C@@H](O)[C@H](O)[C@H]3O)CC[C@]3(C)C(=CCC4[C@@]5(C)C[C@@H](O)[C@H](O)[C@@](C)(CO)C5CC[C@]43C)C2C1 (stereo not given in full)	+
COc1ccc(C(=O)Nc2ccc3c(c2)C(=O)N(C)C2=NCCN23)cc1	i
O=C(NC[C@H]1O[C@@H](CO)[C@@H](O)[C@H]1N1CCOCC1)c1cccs1	i
CCCS(=O)(=O)c1nc(NC2CC2)cc(-c2ccc3c(ccn3C3CC(C)(C)NC(C)(C)C3)c2)n1	?
Cc1nn(C(=O)CCCC(=O)N2CCC(CCOc3ccc(F)cc3)C2)c2ccccc12 (stereo not given)	i
O=C(CCc1nnc2n(Cc3ccc(Cl)cc3)c(=O)c3ccccc3n12)NCCCN1CCCC1=O	i
COc1ccc(C(O[C@@H]2O[C@H](CO)[C@@H](O)[C@H](O)[C@H]2O)C(CO)Oc2ccc(/C=C/CO)cc2OC)cc1O (stereo not given in full)	i
CC(=O)N1CCN(c2ccc(OC[C@H]3CO[C@](Cn4ccnc4)(c4ccc(Cl)cc4Cl)O3)cc2)CC1	i
CNC(=O)O[C@H]1COc2ccc(N3CCN(C4COC4)CC3)cc2[C@@H]1NC(=O)c1ccc(F)cc1	i
CC1CC(C)CN(S(=O)(=O)c2ccc3c(c2)oc(=O)n3CC(=O)NC2CCCCC2)C1 (stereo not given)	i
O=c1cc(-c2ccccc2)c2ccc(OCc3ccc(F)cc3Cl)cc2o1	i
Cn1nc2n(c1=O)CCN(C1CCSCC1)CC2	i
CC(=O)OC1CC(O)(C(C)C)C2C(OC(=O)c3ccc(O)cc3)C=C(C)C(=O)CC12C (stereo not given)	i
C=C1C2(C)CC3C4(C)OC(C5OC56C4=CC(=O)OC6(C)C)C3(C)C13C(=O)OC(C)C3(O)C2=O (stereo not given)	i
FC(F)(F)c1nnc2c(Sc3ccccc3)nc3ccc(Cl)cc3n12	i
CC(=O)Nc1ccc(-c2nnc3n(Cc4ccc(C)cc4)c(=O)c4ccccc4n23)cc1	i
COc1cccc(Cn2nc3n(Cc4ccc(F)cc4)c(=O)c4ccccc4n3c2=O)c1	i
